Compound activity: PubChem, several laboratories
CSC inhib = cancer stem cell viability inhibitors, primary screen, luminescence. AID 2717, 2010. 300,000 tested, 1.1% active. inhibition, % at 7.5 µM. cancer stem cell-like cells viability;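 active = mean at 75% or more and at least half the replicates too; tested in HMLE shEcad cells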;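 also: 0% = median of negative and 100% = median of positive control wells; the first replicate is given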
PABP FP inh = PABP poly(A) RNA binding inhibitors, primary screen, biochemical, fluorescence polarization, uHTS. 290,000 tested, 1% active. AID 2014, 2009. inhibition, % at 35 µM. Polyadenylate-binding protein 1 (Homo sapiens), P11940;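 active = 50% or more with normal probe brightness, or confirmed in later tests; about a fifth of its hits are not listed in these tables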;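 also: calls also rest on retests at 20 µM and on dose response follow-up; controls were probe without protein and protein plus probe with vehicle; some compounds called inactive have numbers as strong as hits; many hits fall short of the cut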
MT1-MMP act inh = blockers of MT1-MMP proenzyme processing, primary screen, HT1080 RFP-PRO-GFP cells, GFP/RFP fluorescence | AID 651647, 2012 | 360,000 tested, 0.061% active | GFP/RFP ratio fluorescence, overnight; percent of plate control window, DMSO zero | GFP/RFP ratio change, % at 20 µM;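 active = GFP/RFP ratio change of at least 30% with cell ATP level not reduced by more than half and red fluorescence within 50% of control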; also: strong numbers were not always called active
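Assay system: HT1080 cells carrying an RFP-PRO-GFP reporter | Dosing: Single dose of 20 µM compound, 1% DMSO final | Incubation: Cells overnight before dosing, compound overnight, 37 °C, 5% CO2 | Evaluation: GFP/RFP fluorescence ratio | Control set: DMSO and RFP-L50D-GFP cell wells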
eIF4H FP inh = human eIF4H binding inhibitors, primary screen, translation initiation inhibitor project, biochemical, uHTS, fluorescence polarization | Eukaryotic translation initiation factor 4H (Homo sapiens), Q15056 | eIF4H fluorescence polarization binding assay | inhibition, % at 35 µM | 290,000 tested, 0.94% active | AID 2012, 2009;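 active = 50% or more with normal probe brightness, or confirmed in later tests; about a fifth of its hits are not listed in these tables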;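 also: calls also rest on retests at 20 µM and on dose response follow-up; 0% = protein and probe with vehicle and 100% = probe without protein; strong numbers were not always called active; many hits fall short of the cut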
Env fusion inh = inhibitors of HIV-1 Env-driven cell-cell fusion, primary screen, HeLa-JRFL effector, CEM21 target cells, luciferase; inhibition, % at 12.3 µM; 360,000 tested, 1.1% active; AID 651610, 2012;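 active = mean replicate inhibition score of at least 50 and every replicate individually at or above 50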;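 also: 0% = plate neutral controls and 100% = maraviroc near 300 nM; one replicate is shown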
Rce1 inhib = yeast Rce1p protease inhibitors, primary screen, biochemical, fluorescence, cell-free homogeneous. CAAX prenyl protease 2 (Saccharomyces cerevisiae (strain ATCC 204508 / S288c)), Q03530. yeast membranes, quenched prenylated peptide cleavage fluorescence. calls only. 290,000 tested, 0.27% active;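 active = fall in fluorescence gain of 50% or more versus controls, with final raw signal at or below 3038400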;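 also: plate controls were neutral control wells for no effect and wells lacking membranes for full effect; tested at 10 µM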
Target sequence (Q03530 whole entry, looked up): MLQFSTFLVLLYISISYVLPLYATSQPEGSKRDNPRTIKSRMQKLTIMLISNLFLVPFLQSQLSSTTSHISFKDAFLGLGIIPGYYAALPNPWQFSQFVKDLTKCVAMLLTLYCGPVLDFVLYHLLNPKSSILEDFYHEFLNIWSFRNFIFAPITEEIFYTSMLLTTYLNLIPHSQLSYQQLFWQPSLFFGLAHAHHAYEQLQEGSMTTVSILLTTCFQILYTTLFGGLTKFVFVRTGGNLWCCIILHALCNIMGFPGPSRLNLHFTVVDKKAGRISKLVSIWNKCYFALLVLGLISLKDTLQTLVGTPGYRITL
UUG fidelity = modulators of yeast start codon fidelity, primary screen, whole organism, S. cerevisiae, single point, plate reader; S. cerevisiae UUG-firefly luciferase reporter, luminescence/redox ratio; 350,000 tested, 0.13% active; AID 602363, 2012; activity score, % at 18.7 µM;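 active = replicate mean at a twofold rise or more, about +100% in these data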;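 also: firefly luciferase made from a UUG start codon reports start codon fidelity; reporter light over untreated wells divided by growth signal over untreated wells; some hits fall short of that in this replicate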
MT1-MMP act inh RFP = also measured in MT1-MMP act inh; calls as there; RFP signal change, %; measured here: RFP expression control read;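 0 = vehicle wells; hits needed this value within 50% of zero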
* marks the source's active call; other numbers are inactive results; i = inactive; . = no result given. These rows are one share of the data; rates above refer to the full screens.

Below each SMILES – eIF4H FP inh	CSC inhib	PABP FP inh	Rce1 inhib	MT1-MMP act inh	MT1-MMP act inh RFP	UUG fidelity	Env fusion inh
- C/C=C/c1ccc(OCCCNC(C)CC)c(OC)c1 (stereo unspecified)
 : 1	9	27	i	3	-5	2	-32
- Cc1cc(N(C)N)nc(NC(=O)NS(=O)(=O)c2ccccc2Cl)n1
 : 10	-19	-9	i	-2	0	-30	3
- CCN(CC(=O)Nc1c(F)cccc1F)C(=O)c1cccc(S(=O)(=O)N2CCCc3ccccc32)c1
 : .	.	.	.	0	-4	10	5
- CC(C)C[C@@H](CN)NC(=O)c1nc[nH]c1C(=O)N[C@@H](C)C(=O)CNC[C@H](C)NC(=O)c1nc[nH]c1C(=O)N[C@@H](C)C(=O)O
 : .	.	.	.	0	5	1	-27
- Cc1ccc(Cc2nc(-c3ccccn3)no2)cc1
 : 8	7	-4	i	5	1	-39	.
- CC(C)(C)OC(=O)N/N=C/c1ccc(Br)cc1
 : -9	0	-4	i	0	0	.	-37
- COc1ccc(/C=C2\Sc3ccc(C(=O)NCCCN4CCCC4)cc3N(C)C2=O)cc1OC
 : -6	-19	-15	i	5	3	-10	5
- COc1ccc(-c2cc(=O)oc3c(C)c(OC(C)C(C)=O)ccc23)cc1 (stereo unspecified)
 : 4	7	2	i	-17	-7	1	32
- O=C(c1ccccc1Cl)N(C(=O)c1ccccc1Cl)c1nccc(-c2cccs2)n1
 : 4	-2	29	i	7	-7	-6	-109
- O=C(CSc1nnc(-c2cccnc2)n1-c1ccc(SC(F)F)cc1)N1CCCc2ccccc21
 : 2	-10	0	i	-4	-1	.	8
- CC(C(=O)Nc1ccc(S(=O)(=O)N2CCOCC2)cc1)N(c1ccccc1)S(C)(=O)=O (stereo unspecified)
 : -9	-18	-2	i	-1	-3	13	.
- COc1ccc(C(=O)OC2CCN(C)CC2)cc1
 : 1	51	7	i	0	3	-10	.
- Cn1cc(/C=C/C(=O)N2CCCC(C(=O)c3ccc(C(C)(C)C)cc3)C2)cn1 (stereo unspecified)
 : -12	63	-14	i	-1	1	-22	2
- CCOc1ccc(C(=O)N/N=C/c2ccc(SC)cc2)cc1
 : -2	1	-7	i	3	-1	-12	-28
- CSCCC1NC(=O)N(CC(=O)Nc2cc(C)on2)C1=O (stereo unspecified)
 : .	.	.	.	2	2	-15	-8

9 entries already listed, arranged by molar mass, rising:
Below each SMILES – eIF4H FP inh	CSC inhib	PABP FP inh	Rce1 inhib	MT1-MMP act inh	MT1-MMP act inh RFP	UUG fidelity	Env fusion inh
- Cc1ccc(Cc2nc(-c3ccccn3)no2)cc1
 : 8	7	-4	i	5	1	-39	.
- C/C=C/c1ccc(OCCCNC(C)CC)c(OC)c1 (stereo unspecified)
 : 1	9	27	i	3	-5	2	-32
- CC(C)(C)OC(=O)N/N=C/c1ccc(Br)cc1
 : -9	0	-4	i	0	0	.	-37
- CSCCC1NC(=O)N(CC(=O)Nc2cc(C)on2)C1=O (stereo unspecified)
 : .	.	.	.	2	2	-15	-8
- COc1ccc(-c2cc(=O)oc3c(C)c(OC(C)C(C)=O)ccc23)cc1 (stereo unspecified)
 : 4	7	2	i	-17	-7	1	32
- O=C(c1ccccc1Cl)N(C(=O)c1ccccc1Cl)c1nccc(-c2cccs2)n1
 : 4	-2	29	i	7	-7	-6	-109
- CC(C(=O)Nc1ccc(S(=O)(=O)N2CCOCC2)cc1)N(c1ccccc1)S(C)(=O)=O (stereo unspecified)
 : -9	-18	-2	i	-1	-3	13	.
- CCN(CC(=O)Nc1c(F)cccc1F)C(=O)c1cccc(S(=O)(=O)N2CCCc3ccccc32)c1
 : .	.	.	.	0	-4	10	5
- CC(C)C[C@@H](CN)NC(=O)c1nc[nH]c1C(=O)N[C@@H](C)C(=O)CNC[C@H](C)NC(=O)c1nc[nH]c1C(=O)N[C@@H](C)C(=O)O
 : .	.	.	.	0	5	1	-27

The listing continues.
Below each SMILES – eIF4H FP inh	CSC inhib	PABP FP inh	Rce1 inhib	MT1-MMP act inh	MT1-MMP act inh RFP	UUG fidelity	Env fusion inh
- COCCCn1cnnc1SCc1nc2sc(C(C)=O)c(C)c2c(=O)[nH]1
 : 23	3	13	i	-15	4	-15	-1
- COCCn1nnnc1C(C(C)C)N1CCOCC1 (stereo unspecified)
 : 9	-3	6	i	2	4	-14	.
- COCCC(=O)N1CCC(Oc2ccc(C(=O)N(C)C(C)c3ccon3)cc2)CC1 (stereo unspecified)
 : 3	1	-8	i	5	2	8	-3
- CCOc1ccc(N(CC(=O)N2CCCCCC2)S(=O)(=O)c2ccc(C)cc2)cc1
 : -8	6	-5	.	-6	-5	11	-13
- CSCC[C@H](NC(=O)OCc1ccccc1)C(=O)O
 : -1	-8	-7	i	-4	-4	-7	4
- CN1CCCN(Cc2nc(-c3cccc(C(F)(F)F)c3)no2)CC1
 : -5	53	6	i	4	8	.	-9
- Nc1nc2ccc([N+](=O)[O-])c(N)c2s1
 : 2	-1	3	i	-5	-4	-7	-95
- CCOc1cc(C(=S)N2CCN(C)CC2)ccc1OCC(=O)N1CCOCC1
 : -16	-13	-8	i	5	2	.	-69
- CC(C)CC(=O)Nc1ccnn1C1CCN(C(=O)c2ccccc2F)CC1
 : 5	9	6	i	-3	0	-2	-10
- CC(C)(C)c1ccc(OCC(=O)N(c2ccccn2)C2CCCCC2)cc1
 : -4	.	-12	i	-7	-19	.	.
- COC(=O)c1cc(NC(=O)c2ccoc2C)cc(C(=O)OC)c1
 : 2	-11	2	i	-3	-1	-10	-18
- Cc1ccc(CNC(=O)CCS(=O)(=O)c2ccc3c(c2)NC(=O)CS3)cc1
 : -10	-6	5	i	-4	3	0	-6
- Nc1nonc1C(=Nc1ccccc1)NO
 : -7	-9	-4	i	-6	-2	0	-37
- CCn1c(SCC(=O)c2ccc3c(c2)Cc2ccccc2-3)nnc1-c1ccc(N)cc1
 : -8	-5	-9	i	5	-2	-21	30
- C/C(=N\NC(=O)c1cccc(S(=O)(=O)N2CCOCC2)c1)c1ccc(OC(F)F)cc1
 : .	-3	.	i	7	-8	.	8
- Cc1ccc(C2C(C#N)=C(N)Oc3n[nH]c(C)c32)cc1 (stereo unspecified)
 : 0	-15	6	i	8	4	-18	10
- COc1ccccc1CNC(=O)c1cc(C(=O)CC(C)C)c[nH]1
 : -4	-3	1	i	0	-4	-7	7
- COc1ccc(NC(=O)N(C)C[C@H]2Oc3c(NS(=O)(=O)c4ccc(F)cc4)cccc3C(=O)N([C@H](C)CO)C[C@@H]2C)cc1
 : .	.	.	.	1	4	14	-15
- O=C(c1ccncc1)N1CCN(S(=O)(=O)c2ccc(F)cc2)CC1
 : -14	1	-13	.	2	6	-18	3
- COc1cccc(/C=C/C(=O)c2ccc(NS(=O)(=O)c3ccc(C)cc3)cc2)c1
 : -1	81*	-1	i	-4	-15	-9	-4
- COc1ccc(/C=N/NC(=O)c2nnn(-c3nonc3N)c2CN(C)c2ccccc2)cc1
 : -4	-1	-7	i	2	-2	-10	-1
- CC(=O)NC(=S)Nc1cc(C(F)(F)F)ccc1N1CCOCC1
 : 8	-5	-12	i	-9	-11	-6	28
- CC1=C(C(=O)N(C)C)CC(CC(=O)NC2CCCCC2)C(=O)N1CCCN1CCCC1=O (stereo unspecified)
 : .	.	.	.	1	0	-7	-87
- O=C(c1ccc2c(c1)OCO2)N1CCN(c2ccccc2F)CC1
 : -2	-2	-3	i	-1	-3	-15	-4
- COC(=O)c1cccc(NC(=O)Cn2cnc3ccccc3c2=O)c1
 : -6	-4	7	i	3	3	2	.
- CC(C)[C@H](NC(=O)N1CCn2c1nc1ccccc12)C(=O)N[C@H](Cc1ccccc1)C(=O)O
 : 9	-8	1	i	7	3	1	.
- CC(C)c1ccc(N(C(=O)C(F)(F)F)C(C(=O)NC2CCCCC2)c2ccncc2)cc1 (stereo unspecified)
 : -10	-4	-9	i	1	4	-3	.
- O=C(Cn1nc(C(=O)O)c2ccccc2c1=O)Nc1cccc(S(=O)(=O)N2CCCCCC2)c1
 : .	-8	.	.	-2	-4	.	-24
- COc1ccc([C@H]2CC(=O)C=C(c3cccc(OC)c3OC)C2)cc1OC
 : .	14	.	.	-3	-23	6	7
- O=C(CNC(=O)c1ccncc1)N/N=C/c1ccc(Br)cc1
 : -10	-8	-6	i	4	3	.	18
- Cc1sc(NC(=O)/C=C/c2ccc3c(c2)OCO3)nc1-c1ccccc1
 : -3	108*	6	i	-13	-37	.	42
- CCOC(=O)c1c(NC(=O)CCC(=O)O)sc2c1CCCCC2
 : 1	-10	-5	i	-1	-2	.	-3
- CC(NC(=O)c1cccc(S(=O)(=O)N(C)c2ccccc2)c1)c1cccnc1 (stereo unspecified)
 : .	-7	.	.	0	-13	-18	30
- CCOC(=O)c1ccc(NC(=O)CCc2nc(-c3ccc(C)cc3)no2)cc1
 : -6	-7	-14	i	2	-17	-16	-20
- C[C@@H](NC(=O)c1ncn2c1c(=O)[nH]c1ccc(Br)cc12)c1ccccc1
 : .	.	.	.	-1	1	-6	23
- CCOC(=O)c1ccc(NC(=O)c2c(NCc3ccccc3)[nH]c(=O)[nH]c2=O)cc1
 : .	2	.	i	.	.	.	-3
- COc1ccc(CCN2CC(C(=O)NCCCn3nc(C)cc3C)CCC2=O)cc1 (stereo unspecified)
 : .	-5	.	i	-2	-1	-15	7
- CN(c1ccc(C(=O)Nc2ccc3c(c2)OCO3)cc1)S(C)(=O)=O
 : -4	22	11	i	-7	-2	-19	-6
- CCN(CC)C(=O)CSCC(=O)Nc1ccccc1
 : -5	3	-6	i	7	7	-25	-7
- COc1ccc([C@H]2/C=C\CN(C(=O)C3CC3)[C@@H](C)C(=O)N2Cc2ccc(F)cc2)cc1
 : .	-8	.	i	-7	-3	-21	70*
- Cc1nn(C)cc1CN(C)C(=O)c1nn2c(c1Cl)NC(c1cccs1)CC2C(F)(F)F (stereo unspecified)
 : 6	7	3	i	4	-3	6	15
- CCOc1ccc(C(=O)N2CCN(S(=O)(=O)c3cccs3)CC2)c(OCC)c1
 : 0	-2	0	i	-4	3	-9	.
- CCc1cc(-c2[nH]ncc2-c2ccc(OC)cc2)c(O)cc1O
 : 1	53	2	i	-3	-17	-21	13
